CSC inhib – cancer stem cell inhibition; cancer stem cell-like cells viability, luminescence; inhibition, % at 7.5 µM; 1.1% of 300,000 active; AID 2717;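 active = mean at 75% or more and at least half the replicates too; inconclusive = mean and replicates disagree; tested in HMLE shEcad cells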;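 also: 0% = median of negative and 100% = median of positive control wells; the first replicate is given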
eIF4H FP inh – inhibitors of RNA binding by human eIF4H. AID 2012. Q15056. 0.94% of 290,000 active. inhibition, % at 35 µM. eIF4H fluorescence polarization binding assay;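 active = 50% or more with normal probe brightness, or confirmed in later tests; inconclusive = above 50% with abnormal brightness, or retests that disagree; inactive = below 50% or failed in later tests; about a fifth of its hits are not listed in these tables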;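 also: calls also rest on retests at 20 µM and on dose response follow-up; 0% = protein and probe with vehicle and 100% = probe without protein; strong numbers were not always called active; many hits fall short of the cut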
PABP FP inh – PABP-poly(A) binding inhibition | P11940 | 1% of 290,000 active | inhibition, % at 35 µM | AID 2014 | PABP-poly(A) RNA binding, fluorescence polarization;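 active = 50% or more with normal probe brightness, or confirmed in later tests; inconclusive = above 50% with abnormal brightness, or retests that disagree; inactive = below 50% or failed in later tests; about a fifth of its hits are not listed in these tables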;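 also: calls also rest on retests at 20 µM and on dose response follow-up; controls were probe without protein and protein plus probe with vehicle; some compounds called inactive have numbers as strong as hits; many hits fall short of the cut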
Target sequence (P11940 whole entry, looked up): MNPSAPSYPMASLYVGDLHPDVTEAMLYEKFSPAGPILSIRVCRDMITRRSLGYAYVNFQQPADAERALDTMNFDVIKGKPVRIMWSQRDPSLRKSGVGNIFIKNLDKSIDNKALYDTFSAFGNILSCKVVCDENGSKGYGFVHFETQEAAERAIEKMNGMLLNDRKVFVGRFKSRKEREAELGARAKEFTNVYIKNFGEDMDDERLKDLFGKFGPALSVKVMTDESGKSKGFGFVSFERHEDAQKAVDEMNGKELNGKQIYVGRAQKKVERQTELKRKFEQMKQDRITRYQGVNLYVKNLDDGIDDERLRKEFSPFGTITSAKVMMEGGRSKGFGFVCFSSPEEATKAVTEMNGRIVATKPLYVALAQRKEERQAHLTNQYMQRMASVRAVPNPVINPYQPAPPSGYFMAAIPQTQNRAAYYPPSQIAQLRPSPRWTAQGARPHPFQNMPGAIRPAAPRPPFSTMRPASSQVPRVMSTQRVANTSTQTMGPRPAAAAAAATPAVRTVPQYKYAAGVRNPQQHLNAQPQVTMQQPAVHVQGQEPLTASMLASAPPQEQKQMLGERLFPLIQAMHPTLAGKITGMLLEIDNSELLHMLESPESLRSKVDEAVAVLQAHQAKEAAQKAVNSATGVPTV
MT1-MMP act inh – blocks activation of human MT1-MMP | P50281 | HT1080 RFP-PRO-GFP cells, GFP/RFP ratio fluorescence, overnight; percent of plate control window, DMSO zero | GFP/RFP ratio change, % at 20 µM | 0.061% of 360,000 active;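 active = GFP/RFP ratio change of at least 30% with cell ATP level not reduced by more than half and red fluorescence within 50% of control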; also: strong numbers were not always called active
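Assay system: HT1080 cells carrying an RFP-PRO-GFP reporter | Dosing: Single dose of 20 µM compound, 1% DMSO final | Incubation: Cells overnight before dosing, compound overnight, 37 °C, 5% CO2 | Evaluation: GFP/RFP fluorescence ratio | Control set: DMSO and RFP-L50D-GFP cell wells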
Env fusion inh – HIV envelope-mediated fusion inhibition; inhibition, % at 12.3 µM; AID 651610; 1.1% of 360,000 active; HeLa-JRFL Env/CEM21 cell fusion, luciferase;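 active = mean replicate inhibition score of at least 50 and every replicate individually at or above 50; inconclusive = only one of the two criteria met; inactive = mean below 50 and not all replicates reaching 50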;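 also: 0% = plate neutral controls and 100% = maraviroc near 300 nM; one replicate is shown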
UUG fidelity – modulators of start codon recognition fidelity in yeast. S. cerevisiae UUG-firefly luciferase reporter, luminescence/redox ratio. activity score, % at 18.7 µM. 0.13% of 350,000 active;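 active = replicate mean at a twofold rise or more, about +100% in these data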;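 also: firefly luciferase made from a UUG start codon reports start codon fidelity; reporter light over untreated wells divided by growth signal over untreated wells; some hits fall short of that in this replicate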
Rce1 inhib – blocks yeast Ras-converting enzyme | Q03530 | yeast membranes, quenched prenylated peptide cleavage fluorescence | calls only | 0.27% of 290,000 active | AID 2563;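 active = fall in fluorescence gain of 50% or more versus controls, with final raw signal at or below 3038400; inconclusive = same 50% fall but final raw signal above 3038400; inactive = fall in fluorescence gain under 50%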;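 also: plate controls were neutral control wells for no effect and wells lacking membranes for full effect; tested at 10 µM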
Target sequence (Q03530 whole entry, looked up): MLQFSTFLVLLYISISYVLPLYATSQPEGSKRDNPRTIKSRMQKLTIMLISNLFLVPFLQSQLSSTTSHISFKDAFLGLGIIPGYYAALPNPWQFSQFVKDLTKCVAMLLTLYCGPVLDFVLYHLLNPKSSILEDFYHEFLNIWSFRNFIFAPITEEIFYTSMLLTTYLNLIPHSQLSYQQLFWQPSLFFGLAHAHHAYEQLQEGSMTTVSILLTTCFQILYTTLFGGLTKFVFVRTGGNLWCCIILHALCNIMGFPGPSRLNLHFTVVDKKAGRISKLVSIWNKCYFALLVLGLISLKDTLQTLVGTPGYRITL
MT1-MMP act inh RFP – further read-out of MT1-MMP act inh, marked with its call; RFP signal change, %; measured here: RFP expression control read;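 0 = vehicle wells; hits needed this value within 50% of zero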
The depositor's hits bear a star; i = inactive; ? = inconclusive; / = no result given. These rows are one share of the data. The share of hits here may be higher or lower than overall.

item	Compound	UUG fidelity	eIF4H FP inh	MT1-MMP act inh RFP	PABP FP inh
1	COc1ccc(CC(=O)NCC(=O)N/N=C/c2ccc(C)o2)cc1	/	-1	2	-16
2	CCc1nc2ccc(C(=O)N3CCN(C)CC3)cn2c1N(C)CCCc1ccccc1	-12	/	-5	/
3	O=C(O)c1c(N2CCCCC2)ccc([N+](=O)[O-])c1N1CCCCC1	/	-2	0	7
4	O=C(/C=C/c1ccc2c(c1)OCO2)N1CCCCC1	-15	-7	-2	4
5	Cc1ccc(Cn2cccc2/C=C2/C(=N)N3C=CSC3=NC2=O)cc1	/	-4	-18	-10
6	Cc1sc2ncn(CC(=O)NCCCN3CC(C)CC(C)C3)c(=O)c2c1S(=O)(=O)N1CC(C)CC(C)C1 (stereo not drawn)	-32	-15	-2	-1
7	CCCCN1CCN=C1N(C)C	-21	/	3	/
8	O=C(COC(=O)c1cc2ccccc2cc1O)Nc1ccccc1F	3	/	3	/
9	O=C(NCC1(c2ccccc2)CCOCC1)c1cccs1	/	-6	3	-8
10	CCOC(=O)c1c(C)[nH]c(C)c1S(=O)(=O)N1CCC(c2ccccc2)C1 (stereo not drawn)	-14	-3	-1	10
11	Cc1cccc(/C=N/NC(=O)c2ccc(NC(=O)c3ccccc3C)cc2)n1	-15	9	5	20
12	Cc1ccc(-n2nc3c(c2NC(=O)c2cc4ccccc4o2)CS(=O)(=O)C3)cc1	-7	-7	-2	-2

item	Rce1 inhib	Env fusion inh	CSC inhib	MT1-MMP act inh
1	i	8	-10	0
2	/	2	/	-1
3	i	-4	18	1
4	i	-17	-6	-2
5	i	4	-1	-14
6	i	-1	-15	-2
7	/	-12	2	2
8	/	13	8	2
9	i	0	-9	7
10	i	1	-1	-3
11	/	13	-10	5
12	i	1	-30	3

Entries by screen from the entries so far:
Nos. 7 to 10 in MT1-MMP act inh RFP: 3, 3, 3, -1

Remaining list, next part
item	Compound	UUG fidelity	eIF4H FP inh	MT1-MMP act inh RFP	PABP FP inh
13	CC(C)N1C(=O)C2C(C(=O)NC3CCCCC3)C3C=CC2(O3)C1C(=O)NC1CCCC1 (stereo not drawn)	-26	-7	4	-8
14	Cc1cc(Br)ccc1NC(=O)CCCOc1cc(=O)n(C)c2ccccc12	-6	/	8	/
15	O=C(O)CN(c1ccccc1)C1SC(=O)NC1=O (stereo not drawn)	/	-1	-1	-6
16	Cc1ccsc1/C=N/N1CCOCC1	/	-12	-7	16
17	O=C(c1cc(Cl)nc2ccccc12)N1CCCCC1	-12	-9	6	-3
18	COc1cccc(-n2nnc3c(=O)n(Cc4ccccc4Cl)cnc32)c1	/	0	4	-6
19	Cc1cccc(Cn2nnc3c2C(=O)c2ccccc2C3=O)c1	-13	-5	-2	-10
20	Cc1noc(NS(=O)(=O)c2ccc(NC(=O)/C=C/c3ccc(Cl)cc3Cl)cc2)c1C	-9	/	3	/
21	Cc1ccc(N2CC(C(=O)Nc3ccc(S(=O)(=O)NCC4CCCO4)cc3)CC2=O)cc1C (stereo not drawn)	-8	3	-2	7
22	Cc1nc(SC(C)C(=O)NC2CCCC2)c2ccccc2n1 (stereo not drawn)	-2	/	-7	/
23	COc1cccc(OCC(=O)NCC2CCCO2)c1 (stereo not drawn)	0	/	4	/
24	COCCn1c(SCC(=O)N2CCOCC2)nnc1-c1ccncc1	-18	-9	1	4

item	Rce1 inhib	Env fusion inh	CSC inhib	MT1-MMP act inh
13	i	-41	-10	3
14	/	-6	/	8
15	i	/	2	1
16	i	6	-16	-1
17	i	2	-18	0
18	i	/	-5	-1
19	i	30	-14	-2
20	/	-4	/	2
21	i	8	-16	4
22	/	14	/	-3
23	/	1	-3	0
24	i	0	-10	1

The listing continues:
item	Compound	UUG fidelity	eIF4H FP inh	MT1-MMP act inh RFP	PABP FP inh
25	O=C(Nc1ccccn1)c1ccc(Cl)c([N+](=O)[O-])c1	/	2	-2	31
26	Cc1sc2nc(C3CC3)nc(SCC(=O)N3c4ccccc4CC3C)c2c1C (stereo not drawn)	-5	-14	-10	-3
27	N#Cc1cnc(SCC(=O)N2CCCC2)nc1N	-15	12	6	8
28	COc1ccc(NC(=O)c2ccccc2Sc2ccc(NC(C)=O)nc2)cc1	-23	42	1	7
29	COc1ccc(CNC(=O)CSCc2cccc(Cl)c2)cc1	/	2	5	12
30	NC(=O)CSc1oc(-c2ccco2)nc1S(=O)(=O)c1ccccc1	8	2	4	17
31	CCc1ccc(Nc2nnc(SCn3nnc4ccccc4c3=O)s2)cc1	-16	0	-1	0
32	Cc1cnc(C(=O)Nc2nnc(C(C)C)s2)cn1	-17	3	3	11
33	C#CCOCCOCCOCCNc1nc(N2CCN(C(=O)[C@H](CCCCN)n3cc([C@@H](N)CO)nn3)CC2)nc(N2CCN(C(=O)[C@H](CCCCN)n3cc([C@@H](N)CC(C)C)nn3)CC2)n1	10	/	8	/
34	O=C(CN1CCCCC1)N=Nc1c(O)[nH]c2ccccc12	/	-2	2	-11
35	Cc1cccc(-n2ncc3c(NC4CCCCC4)ncnc32)c1	-29	0	-4	-11
36	Cc1ccc(N(CC(=O)NCc2ccc3c(c2)OCO3)C(=O)c2csnn2)cc1	-13	3	-1	3

item	Rce1 inhib	Env fusion inh	CSC inhib	MT1-MMP act inh
25	i	13	-11	-1
26	i	/	58	7
27	i	-31	-20	-2
28	i	-1	-9	-3
29	i	/	0	1
30	i	/	-3	-2
31	/	/	-3	3
32	i	-57	5	4
33	/	10	0	0
34	i	-16	-13	2
35	i	-322	68	-5
36	/	-4	-1	-4

Some of the entries so far, tab-delimited.
no.	SMILES	UUG fidelity	eIF4H FP inh	MT1-MMP act inh RFP	PABP FP inh	Rce1 inhib	Env fusion inh	CSC inhib	MT1-MMP act inh
21	Cc1ccc(N2CC(C(=O)Nc3ccc(S(=O)(=O)NCC4CCCO4)cc3)CC2=O)cc1C (stereo not drawn)	-8	3	-2	7	i	8	-16	4
22	Cc1nc(SC(C)C(=O)NC2CCCC2)c2ccccc2n1 (stereo not drawn)	-2	/	-7	/	/	14	/	-3
23	COc1cccc(OCC(=O)NCC2CCCO2)c1 (stereo not drawn)	0	/	4	/	/	1	-3	0
24	COCCn1c(SCC(=O)N2CCOCC2)nnc1-c1ccncc1	-18	-9	1	4	i	0	-10	1
25	O=C(Nc1ccccn1)c1ccc(Cl)c([N+](=O)[O-])c1	/	2	-2	31	i	13	-11	-1
26	Cc1sc2nc(C3CC3)nc(SCC(=O)N3c4ccccc4CC3C)c2c1C (stereo not drawn)	-5	-14	-10	-3	i	/	58	7
27	N#Cc1cnc(SCC(=O)N2CCCC2)nc1N	-15	12	6	8	i	-31	-20	-2
28	COc1ccc(NC(=O)c2ccccc2Sc2ccc(NC(C)=O)nc2)cc1	-23	42	1	7	i	-1	-9	-3
29	COc1ccc(CNC(=O)CSCc2cccc(Cl)c2)cc1	/	2	5	12	i	/	0	1
30	NC(=O)CSc1oc(-c2ccco2)nc1S(=O)(=O)c1ccccc1	8	2	4	17	i	/	-3	-2
31	CCc1ccc(Nc2nnc(SCn3nnc4ccccc4c3=O)s2)cc1	-16	0	-1	0	/	/	-3	3
32	Cc1cnc(C(=O)Nc2nnc(C(C)C)s2)cn1	-17	3	3	11	i	-57	5	4
33	C#CCOCCOCCOCCNc1nc(N2CCN(C(=O)[C@H](CCCCN)n3cc([C@@H](N)CO)nn3)CC2)nc(N2CCN(C(=O)[C@H](CCCCN)n3cc([C@@H](N)CC(C)C)nn3)CC2)n1	10	/	8	/	/	10	0	0

Later entries
item	Compound	UUG fidelity	eIF4H FP inh	MT1-MMP act inh RFP	PABP FP inh
37	CCC(CC)C(=O)NCc1ccccc1OC	-17	-5	2	-3
38	CC(O)c1cccc(NC(=O)Cc2cccc3ccccc23)c1 (stereo not drawn)	/	-1	/	2
39	CC(SC(C)C(=O)NN=Cc1cccc(Cl)c1)C(=O)NN=Cc1cccc(Cl)c1 (stereo not drawn)	-13	/	-2	/
40	Brc1ccc2c(c1)CNc1c(ncnc1N1CCOCC1)O2	-8	-9	0	3
41	O=Cc1ccc2noc(-c3ccc(F)cc3)c2c1	-41	?	-2	?
42	COc1cc(Cl)c(C)cc1NC(=O)c1ccccc1NC(=O)CN1CCN(C(C)=O)CC1	17	/	2	/
43	Cc1cc2oc(C(=O)Nc3ccc(S(=O)(=O)Nc4ncccn4)cc3)c(C)c2cc1Cl	-14	-1	-2	7
44	CCOC(=O)Nc1ccc(S(=O)(=O)N2CCC(C)CC2)cc1	-19	-4	-1	-6
45	CSc1ccc(-c2nc(CSCC(=O)N3CCOCC3)c(C)o2)cc1	-1	-14	-14	-8
46	CSc1nc(N)nc2c1ncn2C1OC(CO)C(O)C1O (stereo not drawn)	-16	/	6	/
47	CC(=O)c1ccc(NC(=O)CN2C(=O)NC3(CCCc4ccccc43)C2=O)cc1 (stereo not drawn)	-1	/	-1	/
48	CCSc1nc(-c2ccc(OC)cc2)n(-c2nc3ccccc3s2)n1	-22	-5	-1	-5

item	Rce1 inhib	Env fusion inh	CSC inhib	MT1-MMP act inh
37	i	-17	5	-2
38	i	/	-3	/
39	/	22	/	4
40	i	13	11	7
41	i	-37	4	-30
42	/	-125	/	1
43	i	-1	11	6
44	i	-11	23	-3
45	i	39	-2	-2
46	/	-2	/	3
47	/	/	-20	-2
48	i	4	18	-12

New compounds follow:
item	Compound	UUG fidelity	eIF4H FP inh	MT1-MMP act inh RFP	PABP FP inh
49	C[C@@H]1C=C(C(=O)O)O[C@H](OCc2ccc(CO)cc2)C1	-22	-2	2	-1
50	Cc1ccc2c(C)nc(Nc3ncc4c(n3)CCCC4=O)nc2c1	/	/	/	/
51	CC(=O)Nc1cccc(-n2nnc(SCC(N)=O)n2)c1	/	-3	4	-3
52	c1ccc2[nH]c(SCc3ccc(-c4nnco4)cc3)nc2c1	-29	-10	1	-1
53	CC(=O)c1ccc(S(=O)(=O)N(CCCO)Cc2cc3cc4c(cc3[nH]c2=O)OCCO4)cc1	-8	-1	1	-6
54	O=C(NC(c1ccc(-c2ccccc2)cc1)c1cnccn1)C1CCN(Cc2ccc3c(c2)OCO3)CC1 (stereo not drawn)	-13	/	-1	/
55	CCOC1CCCC(n2cnc3c(=S)nc[nH]c32)O1 (stereo not drawn)	-24	/	3	/
56	Cc1ccc(C(C(=O)NC2CCCC2)N(Cc2cccs2)C(=O)c2csnn2)o1 (stereo not drawn)	5	/	1	/
57	O=C(NCCCn1ccnc1)c1ccccc1Cl	-8	5	3	-5
58	COC(=O)C1=C(C)N(C2CCCCC2)C(=O)/C1=C\c1cccs1	/	5	-4	-4
59	N#Cc1ccc(NC(=O)COC(=O)CCNS(=O)(=O)c2ccccc2)cc1	1	-4	3	-1
60	Cc1cc(C)c(NC(=O)COC(=O)C2CCC(=O)N2)c(C)c1 (stereo not drawn)	-8	-5	1	9

item	Rce1 inhib	Env fusion inh	CSC inhib	MT1-MMP act inh
49	i	-8	-8	0
50	i	-58	-21	/
51	i	-1	-10	0
52	i	-68	13	0
53	i	-6	2	-1
54	/	12	/	0
55	/	6	/	-3
56	i	-9	-18	5
57	i	5	-6	-1
58	i	-3	55	1
59	i	18	-7	-1
60	i	16	-22	-1

Source: PubChem BioAssay
